Source: PubChem BioAssay (several laboratories)
Autofluor counter: counter-screen for toxin protease inhibitors: compound fluorescence; fluorescence intensity (concentration not given with the values); 360,000 tested, 3.1% active; compound autofluorescence counterscreen, microsphere flow cytometry; active compounds read high;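 active means at least 3 SD above the mean of all compounds, about 16000 in these data; inconclusive means too few beads counted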;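 further: 100 nL of 1 mM stock went into each well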
Mtb hypoxia inh: reduces hypoxia-regulated biosensor signal in M. tuberculosis | fluorescence inhibition, % (test concentration not listed) | AID 1159583 | M. tuberculosis hypoxia-regulated fluorescent reporter, fluorescence | 300,000 tested, 0.1% active;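 active means 35 to 45% if threefold the growth effect, above 45% if 1.5-fold the growth effect; inactive means the rest, general growth blockers included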;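 further: wells of about 50 µL received 100 nL stock; 0% = vehicle wells and 100% = reference inhibitor wells; whole bacteria with a GFP reporter of the hypoxia response; strong numbers were not always called active; many hits fall short of the cut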
PrP UTR inh: suppresses PrP 5' UTR mRNA reporter expression; cell-based PrP 5' UTR mRNA reporter, plate reader; inhibition, % (no concentration beside the values); 340,000 tested, 0.35% active; AID 488862;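 active means every replicate at 50% or more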;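 further: 0 = median of the neutral control wells; tested in H4 reporter cells; numbers are from one replicate; inactives centre near -14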
Sa RN4220 lethal: S. aureus RN4220 growth inhibition. OD600, 16 h. inhibition, % (test concentration not listed). 330,000 tested, 0.33% active;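 active means z-score of -3 or lower and OD600 up to 0.18 on both plates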;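 further: plate controls were untreated cells for no effect and reference antibiotic for full effect; stock transfer was 100 nL into about 80 µL; one replicate is shown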
BJeLR lethal: kills HRASV12-expressing BJeLR cells; 300,000 tested, 0.17% active; inhibition, % (no concentration beside the values); AID 1554; BJeLR (HRASV12) viability, CellTiter-Glo ATP luminescence, 48 h; reference of the scale not given here;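 active means replicate mean above 50%; inconclusive means above 50% but judged a plate artefact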;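 further: 50 nL library stock added to about 25 µL; numbers are from one replicate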
ugtP null kill: growth inhibition of S. aureus ugtP deletion strain; S. aureus RN4220 ugtP deletion, OD600 growth, 16 h; some inactives read as strong as hits; growth inhibition, % (test concentration not listed); 330,000 tested, 0.54% active;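 active means z-score under -3 and OD600 up to 0.15 on both plates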;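 further: plate controls were untreated wells for no effect and antibiotic for full effect; wells of about 80 µL received 100 nL stock; the first replicate is given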
Mtb hypoxia inh growth: also measured in Mtb hypoxia inh; calls as there; growth inhibition, %; measured here: M. tuberculosis growth (absorbance);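 0% = vehicle and 100% = reference antibiotic; read after six days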
Numbers without * were called inactive; ? = inconclusive; . = not tested or not shown.

SMILES	Autofluor counter	Mtb hypoxia inh	Mtb hypoxia inh growth	PrP UTR inh	Sa RN4220 lethal	BJeLR lethal	ugtP null kill
COc1ccc(-n2nc(C(=O)NCC(=O)NC(C)C)c3ccccc3c2=O)c(OC)c1	3787	10	-2	-19	2.1	1	17
Cc1ccc(C(=O)N/C(=C\c2ccc(Cl)cc2)C(=O)NCC2CCCO2)cc1 (stereo unspecified)	2565	-16	-4	-14	-1.0	4	4
Cn1c(=O)[nH]c(=O)c2c1nc(N1CCCCC1)n2CC(O)COc1ccc([N+](=O)[O-])cc1 (stereo unspecified)	3283	-3	4	-6	-0.4	-8	1
c1ccc(C2=Nn3c(nnc3-c3ccco3)SC2)cc1	2901	-7	-9	-8	-0.8	-4	-3
Cc1ccc(C(=O)OCC(=O)Nc2ccccc2N2CCOCC2)cc1	3086	-2	3	4	-1.4	-7	-10
COc1cc(C(=O)Nc2ccc(OCC(=O)O)cc2)cc(OC)c1OC	2835	0	2	-12	2.9	-9	9
COc1ccc(C(CNC(=O)c2cccc(S(=O)(=O)Nc3ccccc3OC)c2)N2CCOCC2)cc1 (stereo unspecified)	?	-14	-10	-8	3.5	-2	0
Cc1cc(C)c(S(=O)(=O)c2ccccc2C(=O)O)c(C)c1	2737	17	14	-7	2.6	-2	7
CC(C)CNC(=O)CSc1nnc(-c2ccc(Cl)cc2)n1N	3706	-6	4	-4	3.5	2	-1
COC(=O)C1=C(C)Nc2c(c(=O)n(C)c(=O)n2C)C1c1cccc(O)c1 (stereo unspecified)	3470	6	6	7	4.0	-11	5
COc1ccc(C(=O)CCC(=O)Nc2cccnc2)c(OC)c1	5955	1	-10	-5	4.1	-2	15
COc1ccc(N2C(=O)NC3CC2(C)Oc2ccccc23)cc1 (stereo unspecified)	4500	-6	-1	-10	2.0	-18	7
Nc1nc(-c2ccccc2)cn1N	2687	.	.	-2	-0.8	-2	-2
CC1CC(C)CN(CCCNC(=O)CCC(=O)N2CC(C)Oc3ccccc32)C1 (stereo unspecified)	4376	-5	-7	-4	-3.4	-8	13
COc1ccccc1NC(=O)CSc1nncn1-c1ccccc1	4323	6	-4	-4	0.8	-1	1
O=C(Nc1cc(S(=O)(=O)N2CCOCC2)ccc1N1CCOCC1)c1cccc(S(=O)(=O)N2CCCCC2)c1	4287	-9	-1	-12	4.3	-5	0
CC(Sc1ccccc1)C(=O)N/N=C/c1ccccc1 (stereo unspecified)	5876	.	.	1	.	-1	.
CC(=O)c1cccc(S(=O)(=O)NCCC(=O)O)c1	4363	2	12	3	8.8	-5	1
CCCCc1nc2cc(C(=O)N3CCCCC3CCNC(C)=O)ccc2o1 (stereo unspecified)	4525	5	-2	-2	5.2	-4	12
CN(CCc1ccccc1)C(=O)c1ccc(NC(=O)Cc2ccc(NC(=O)C3CCN(C(=O)CCc4ccccc4)CC3)cc2)cc1	3779	-13	2	-17	6.3	.	-6
Cc1cc(NC(=O)COc2ccc(N(C)S(=O)(=O)c3ccccc3)cc2)no1	3915	.	.	-19	1.0	4	7
COc1cc(C=CC(=O)OCC(=O)Nc2c(C)n(C)n(-c3ccccc3)c2=O)ccc1OCC#N	.	2	6	.	3.0	.	-3
COc1ccc(-n2nc(C(=O)NCC(=O)NCC3CCCO3)c3ccccc3c2=O)cc1Cl (stereo unspecified)	3128	14	3	-18	2.1	.	5
C=C1CCN(C(Cc2ccccc2)C(=O)NCCC(C)C)S(=O)(=O)c2ccccc21 (stereo unspecified)	.	6	9	.	6.2	.	-11
O=C(CCCc1ccccc1)NCCc1ccccc1	4095	17	-1	-40	1.1	0	9
SMILES	Autofluor counter	Mtb hypoxia inh	Mtb hypoxia inh growth	PrP UTR inh	Sa RN4220 lethal	BJeLR lethal	ugtP null kill
CN1C(=O)NC2(O)C(=O)c3ccccc3C12O (stereo unspecified)	3577	13	9	-11	0.6	5	-5
CCOc1ccc2[nH]c(=O)c(CN(Cc3ccco3)Cc3nnnn3Cc3ccccc3)cc2c1	5860	4	6	-2	8.8	-3	-15
CCCCCC(=O)NN=Cc1ccc([N+](=O)[O-])o1	.	2	3	.	23	.	32
NC(=O)c1ccc(-c2nnn(CC(=O)N(C3CCCC3)C3CCS(=O)(=O)C3)n2)cc1 (stereo unspecified)	3948	0	-2	-15	0.7	.	2
O=C(COC(=O)c1ccco1)Nc1cc(S(=O)(=O)N2CCCCC2)ccc1Cl	3457	13	8	-28	4.5	.	0
CCN1CCN(C(=O)C(C)N(c2ccc(C)cc2)S(C)(=O)=O)CC1 (stereo unspecified)	2795	.	.	-12	-3.9	-3	-6
CCCn1c(SCC(=O)Nc2nc(C)cs2)nnc1-c1cccnc1	3482	1	0	1	3.2	.	8
O=c1cc(CSc2nnnn2-c2ccccc2)nc2nc[nH]n12	4858	.	.	-12	-1.7	-20	6
CCc1nnc(NC(=O)c2ccc3ccccc3n2)s1	4519	2	-5	-35	0.4	-1	3
COc1ccc(CCN2C(=O)C3C4CC(C5C(C(=O)O)=NOC45)C3C2=O)cc1OC (stereo unspecified)	2562	.	.	-6	1.6	3	11
CCN(C(=O)c1cccc(NC(=O)c2ccccc2)c1)C1CCCCC1	5561	14	12	-3	4.7	5	10
Cc1ccc(NC(=O)C2CCN(S(=O)(=O)c3ccc4c(c3)OCCO4)CC2)c(O)c1	5824	3	7	-13	-1.6	3	1
CN(CCc1ccccc1)C(=O)c1ccc(NC(=O)Cc2ccc(NC(=O)C3CCCN(C(=O)c4ccccc4)C3)cc2)cc1 (stereo unspecified)	3525	-1	0	-7	5.4	.	-4
COc1cc(C(=O)NCC(C)(C)CNC(=O)c2cc(OC)c(OC)c(OC)c2)cc(OC)c1OC	3296	15	2	-4	1.7	-4	1
CCN(CC)c1ccc(NC(=O)CNCc2ccccc2Cl)c(C)c1	3139	5	3	-8	13	-4	1
COC(=O)c1ccc2c(c1)C(C)(C)C(/C=C/c1ccccc1O)=[N+]2C	10956	3	14	-33	6.3	33	-11
CC(C)c1ccc(C(N)=S)cc1	4460	4	3	-29	12	11	-5
COc1ccc(CNC(=O)COC(=O)/C=C/c2ccc(S(=O)(=O)N3CCOCC3)cc2)cc1	4188	23	2	-21	4.3	-3	7
Cc1noc(C)c1CSCc1ccc(Cl)cc1	4635	-3	-14	-5	0.8	-7	-2
COc1ccccc1NC(=O)Nc1nnc(C(C)c2ccccc2)s1 (stereo unspecified)	.	16	1	-6	6.0	-5	-1
CC(=NNC(=O)c1ccc(CN2CCOCC2)cc1)c1cccc([N+](=O)[O-])c1	.	-6	2	.	3.2	.	9
CNC(=O)CSc1nnc(-c2ccccc2F)n1CCc1ccccc1	4555	4	-8	-21	1.6	-3	6
COc1cccc(CN(C)CC(=O)Nc2cccc(C(F)(F)F)c2)c1OC	4572	14	5	-23	11	7	6
CCS(=O)(=O)Nc1c(C)n(C)n(-c2ccccc2)c1=O	8366	19	11	-22	5.2	6	7
Cc1ccc(N(CC(=O)Nc2ccc(S(=O)(=O)N3CCOCC3)cc2)S(C)(=O)=O)cc1C	4114	-1	11	-8	-0.4	-5	3

Filtered by structure: the entries above with fluorine
SMILES	Autofluor counter	Mtb hypoxia inh	Mtb hypoxia inh growth	PrP UTR inh	Sa RN4220 lethal	BJeLR lethal	ugtP null kill
CNC(=O)CSc1nnc(-c2ccccc2F)n1CCc1ccccc1	4555	4	-8	-21	1.6	-3	6
COc1cccc(CN(C)CC(=O)Nc2cccc(C(F)(F)F)c2)c1OC	4572	14	5	-23	11	7	6

New compounds follow.
SMILES	Autofluor counter	Mtb hypoxia inh	Mtb hypoxia inh growth	PrP UTR inh	Sa RN4220 lethal	BJeLR lethal	ugtP null kill
CCOC(=O)c1[nH]c(C)c(C(=O)NC2CCCCCC2)c1C	2980	10	11	-5	4.8	-9	3
CCOC(=O)CSc1nnc(CSc2nc3ccccc3c(=O)[nH]2)n1-c1ccccc1	2148	.	.	0	11	-7	2
CCc1ccc2nc(-c3cccc(C)c3)nc(SCC(=O)NCC3CCCO3)c2c1 (stereo unspecified)	5215	-3	3	-9	4.9	-11	-3
Cc1[nH]n(-c2ccc([N+](=O)[O-])cc2)c(=O)c1C=NCCN1CCN(C(=O)c2cccc(F)c2)CC1	3168	9	11	1	2.0	19	4
O=C(NCc1cn2ccsc2n1)c1cccc(C(F)(F)F)c1	2510	7	0	-22	4.1	-12	-7
C#CCOCCOCCOCCNc1nc(N2CCN(C(=O)Cn3cc(CC(C)O)nn3)CC2)nc(N2CCN(C(=O)[C@H](CCCCN)n3cc(CCC(=O)O)nn3)CC2)n1 (stereo partly specified)	3360	.	.	0	.	3	.
O=C(NCc1ccccn1)c1ccc(Cl)c(S(=O)(=O)NCc2ccccc2)c1	?	8	12	.	3.0	.	4
CCOC(=O)c1ccc(NS(=O)(=O)c2ccc3oc(=O)[nH]c3c2)cc1	5847	2	14	-4	-3.4	7	21
C=CCOc1ccc(Br)cc1CNCCO	2603	2	3	-10	2.0	7	2
CC(=NNC(=O)c1ccc(N2CCCC2=O)cc1)c1ccncc1	.	9	7	.	4.4	.	4
CCOc1ccc(CCNC(=O)CSc2cc(=O)n(C)c3ccc(Cl)cc23)cc1OCC	9942	10	0	-29	5.1	-16	11
N#Cc1ccsc1NC(=O)COC(=O)c1cc(Br)ccc1O	4381	-12	-1	-37	6.5	3	6
CCS(=O)(=O)Nc1cccc(-c2ccc3nnc(C)n3n2)c1	.	14	-1	.	-0.8	11	3
COc1ccc(Cl)c(Cn2c(NCCCO)nc3c2c(=O)n(C)c(=O)n3C)c1	3286	.	.	-17	4.5	0	-4
CCCCC#Cc1ccc(C(=O)NNC(=O)Nc2ccccc2)o1	4522	-2	2	-24	2.4	8	-2
CCNc1nc(NCC)nc(N/N=C/c2ccc(N(C)C)cc2)n1	2559	.	.	-6	.	1	.
Cc1ccc(CNC(=O)Cn2nnc(C(=O)Nc3cccc(C)c3C)c2N)cc1	5687	1	-1	-12	3.4	-3	3
Fc1ccc(-c2cc3nc(-c4ccccc4)cc(N4CCOCC4)n3n2)cc1	6620	3	-2	-15	-1.3	-10	-10
Cc1cc(C)cc(NC(=O)CCc2nc3ccccc3[nH]2)c1	3223	6	1	-15	2.6	-3	-3
Cc1noc(C)c1C(=O)NCC1COc2ccccc2O1 (stereo unspecified)	6406	5	0	-13	-0.4	.	1
COc1cc(C=O)ccc1OCC(=O)Nc1ccccc1N1CCOCC1	6542	9	-4	-4	4.9	8	0
CN(Cc1nccn1C)C(=O)CC1C(=O)NCCN1Cc1ccccc1C(F)(F)F (stereo unspecified)	5017	9	7	-34	6.0	3	6
COc1ccc(-n2c(C)c(C(=O)O)c3cc(OC)c4ccccc4c32)cc1	5030	-12	10	-4	0.3	-6	14
CN1CC(C(=O)c2ccc(F)cc2)C(c2c(F)cccc2Cl)C1 (stereo unspecified)	4977	15	8	-25	5.7	7	-1
O=C(CN1CCN(S(=O)(=O)c2ccccc2C(F)(F)F)CC1)NCc1cccs1	6854	5	7	-15	3.5	-8	13

Full records as entered above.
`CN(Cc1nccn1C)C(=O)CC1C(=O)NCCN1Cc1ccccc1C(F)(F)F` (stereo unspecified) is listed with Autofluor counter = 5017; Mtb hypoxia inh = 9; Mtb hypoxia inh growth = 7; PrP UTR inh = -34; Sa RN4220 lethal = 6.0; BJeLR lethal = 3; ugtP null kill = 6
`CCS(=O)(=O)Nc1cccc(-c2ccc3nnc(C)n3n2)c1` is listed with Autofluor counter = .; Mtb hypoxia inh = 14; Mtb hypoxia inh growth = -1; PrP UTR inh = .; Sa RN4220 lethal = -0.8; BJeLR lethal = 11; ugtP null kill = 3
`CN1CC(C(=O)c2ccc(F)cc2)C(c2c(F)cccc2Cl)C1` (stereo unspecified) is listed with Autofluor counter = 4977; Mtb hypoxia inh = 15; Mtb hypoxia inh growth = 8; PrP UTR inh = -25; Sa RN4220 lethal = 5.7; BJeLR lethal = 7; ugtP null kill = -1

Other compounds.
SMILES	Autofluor counter	Mtb hypoxia inh	Mtb hypoxia inh growth	PrP UTR inh	Sa RN4220 lethal	BJeLR lethal	ugtP null kill
CC(C)(C)NCC(O)CON=C1c2ccccc2-c2ccccc21 (stereo unspecified)	4747	20	16	-27	-5.2	6	14
NC(=O)C1CCN(C(=O)COc2ccc3ccccc3c2)CC1	3191	6	2	-21	4.8	-15	-2
CCn1c(=O)c2c(nc(SCC(=O)Nc3ccccc3)n2C)n(C)c1=O	3569	9	3	-18	1.5	-2	-1
O=c1c2ccccc2nc2c3ccccc3ncn12	6110	0	0	-3	5.8	-1	2
CCOc1ccc(NS(=O)(=O)c2cccc(C(=O)N(C)Cc3ccco3)c2)cc1	8291	5	8	-18	0.6	.	1
Cc1nn(C)c(C)c1CNC(=O)Nc1cccc(Cl)c1C	3556	17	0	-17	14	2	6
